Ecoli rRNA inh: selective bacterial rRNA inhibition in E. coli; E. coli WT GFP vs humanized-ribosome RFP mutants, fluorescence, 24 h; stronger effect = lower value; DMSO median 0, no signal -100; GFP signal change (wild-type ribosome), % (concentration not given with the values); hit rate 1.6% among 350,000; AID 720706;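 active = significant combined selectivity score with lowered wild-type GFP, culture density cut under 30%, mutant RFP and density less affected; inactive = any of these conditions unmet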; also: one replicate is shown; some compounds called inactive have numbers as strong as hits
ALR inh: blocks human ALR sulfhydryl oxidase activity. inhibition, % (no concentration beside the values). purified ALR, DTT oxidation, H2O2 HRP-luminol luminescence. hit rate 3.8% among 290,000. P55789;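 active = mean and each replicate at 75% or more; inconclusive = only one of the two met; inactive = neither met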;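 also: stock transfer was 7.5 nL into about 7.5 µL; 0% = neutral wells and 100% = wells with inactivated enzyme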
Target sequence (P55789 whole entry, looked up): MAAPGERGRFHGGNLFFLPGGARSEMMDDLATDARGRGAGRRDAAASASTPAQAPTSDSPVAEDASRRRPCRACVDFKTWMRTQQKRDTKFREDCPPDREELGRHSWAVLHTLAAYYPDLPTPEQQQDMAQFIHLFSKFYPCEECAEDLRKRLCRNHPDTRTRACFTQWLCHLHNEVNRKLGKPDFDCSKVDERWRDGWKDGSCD
Calb FLC: C. albicans growth modulation with fluconazole. hit rate 0.57% among 300,000. AID 1979. C. albicans CaCi-2 (fluconazole-resistant clinical isolate) + fluconazole, Alamar Blue growth, 48 h. growth inhibition, % (concentration not given with the values);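 active = most replicates above 75%; inconclusive = exactly half above 75%; inactive = most below 75%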;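 also: all wells also contain fluconazole at 8 µg/ml as a sub-toxic cotreatment; 0% = median of DMSO wells and 100% = median of geldanamycin control wells; wells of about 8 µL received 7.5 nL stock; the first replicate is given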
MLL AF4-AF9 inh: inhibitors of human MLL-AF4/AF9 interaction; AlphaScreen, biotin-AF4 peptide binding to FLAG-AF9; inhibition, % at 10 µM; hit rate 0.47% among 350,000; AID 651704;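 active = every replicate reaching a set inhibition limit, whatever the replicate mean, cut at about 25% in these data; inconclusive = mean inhibition reaches that limit but some replicates miss it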;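 also: 0% = plate neutral control median and 100% = total signal loss; the record names both 10 and 1 µM as test concentration; the first replicate is given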
Target sequence (P42568 whole entry, looked up): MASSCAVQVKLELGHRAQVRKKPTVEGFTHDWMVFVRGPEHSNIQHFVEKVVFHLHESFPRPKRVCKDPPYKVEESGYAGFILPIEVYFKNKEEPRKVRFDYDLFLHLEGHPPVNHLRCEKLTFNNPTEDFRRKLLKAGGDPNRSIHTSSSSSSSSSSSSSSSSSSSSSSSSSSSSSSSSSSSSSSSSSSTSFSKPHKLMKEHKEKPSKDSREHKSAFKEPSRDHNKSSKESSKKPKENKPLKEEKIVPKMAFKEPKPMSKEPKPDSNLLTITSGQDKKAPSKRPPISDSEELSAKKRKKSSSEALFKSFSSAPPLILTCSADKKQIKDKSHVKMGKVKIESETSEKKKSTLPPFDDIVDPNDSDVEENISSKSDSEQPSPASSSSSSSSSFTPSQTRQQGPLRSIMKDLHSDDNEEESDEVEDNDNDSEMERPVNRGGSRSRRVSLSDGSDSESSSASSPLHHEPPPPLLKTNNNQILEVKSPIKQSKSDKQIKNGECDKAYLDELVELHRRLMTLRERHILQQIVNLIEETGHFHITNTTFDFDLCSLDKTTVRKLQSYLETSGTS
FGF22 binding: FGF22 (human) thermal shift binding; hit rate 1.5% among 340,000; recombinant FGF22 thermal shift, SYPRO orange fluorescence; percent of sucrose octasulfate shift, DMSO zero; calls only at 9.99 µM;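 active = melting point raised past a set limit in the mean and every replicate; inconclusive = no clear call; three in four hits are not shown here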
Target sequence (Q9HCT0 whole entry, looked up): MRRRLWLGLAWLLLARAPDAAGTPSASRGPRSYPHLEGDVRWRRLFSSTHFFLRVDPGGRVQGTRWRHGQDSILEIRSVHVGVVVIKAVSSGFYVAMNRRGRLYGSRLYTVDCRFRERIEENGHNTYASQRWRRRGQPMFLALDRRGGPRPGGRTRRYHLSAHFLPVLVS
T cruzi repl: blocks replication of Trypanosoma cruzi; T. cruzi beta-gal in NIH3T3, luminescence, 90 h; inhibition, % (no concentration beside the values); hit rate 1.4% among 300,000;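 active = mean inhibition across valid replicates above about 55%, limit read from the data; inconclusive = mean below that limit but half or more replicates reach it; inactive = mean below it, under half of replicates reach it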;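 also: signal also drops with host cell toxicity which is not excluded here; 0% = plate median of DMSO wells and 100% = zero luminescence signal; higher percent means less beta-gal luminescence so fewer parasites; stock transfer was 50 nL into about 50 µL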
RanGTP-Imp inh: disruptors of Ran-importin-beta complex formation – biochemical, FRET, CFP-Ran, YFP-importin-beta, homogeneous, primary screen. hit rate 1.1% among 300,000. inhibition, % (test concentration not listed). cell-free CFP-Ran/YFP-importin-beta FRET ratio. AID 2216;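 active = most replicates above 15%; inconclusive = exactly half above 15%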;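 also: 0% = DMSO wells and 100% = Ran loaded with GDP instead of GTP; wells of about 40 µL received 100 nL stock; the first replicate is given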
Beta cell apopt: blocks beta cell apoptosis; INS-1E cytokine-induced death, ATP luminescence, 48 h; percent of positive-control rescue, neutral wells zero; protection from apoptosis, % (no concentration beside the values); hit rate 0.8% among 300,000; AID 435005;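 active = all replicates at 75% or more, or half of them and the mean; inconclusive = half reach 75% but not the mean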;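 also: 0% = cytokine-treated negative control wells and 100% = positive control rescue; higher means more ATP so stronger rescue from cytokine killing; wells of about 40 µL received 100 nL stock; the first replicate is given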
Ecoli rRNA inh OD600: second read-out of Ecoli rRNA inh, no call of its own (marks repeat the call); OD600 change, %; measured here: OD600 growth;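 optical density of the mix in the first replicate; 0 = DMSO median and -100 = no signal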
Ecoli rRNA inh RFP: second read-out of Ecoli rRNA inh, no call of its own (marks repeat the call); RFP signal change, %; measured here: RFP humanized mutant strains;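 first replicate; 0 = DMSO median and -100 = no signal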
An asterisk follows results filed as active; i = inactive; ? = inconclusive; / = not tested or not shown. An excerpt. The share of hits here may be higher or lower than overall.

SMILES	Ecoli rRNA inh	Ecoli rRNA inh OD600	Ecoli rRNA inh RFP	ALR inh	Calb FLC	MLL AF4-AF9 inh	FGF22 binding	T cruzi repl	RanGTP-Imp inh	Beta cell apopt
COc1ccc([C@H]2CC(=O)C=C(c3cccc(Br)c3)C2)cc1	-16	-27	-16	-6	/	-39	i	/	/	-4
CC(OC(=O)C12CC3CC(CC(O)(C3)C1)C2)C(N)=O (centres undefined)	9	12	2.6	-5	24	-0.6	i	1	1.8	-4
COc1ccc(-c2cc(=O)[nH]c(=O)[nH]2)cc1	/	/	/	-5	-7	/	/	5	-0.1	-2
O=C(CCCN1C(=O)c2cccc3cccc(c23)C1=O)Nc1ccon1	6	11	1.4	5	-18	-2.2	i	3	-1.9	2
O=C1CCNc2ccc(-c3ccccc3)cc21	-2	-10	-7.6	-15	13	-21	i	-1	-9.5	/
COP(=O)(CN(Cc1ccccc1)C(=S)Nc1c(C)cccc1C)OC	17	8	1.8	0	7	-2.0	i	-1	-5.5	-3
COc1ccc(CNC(=O)CN2C(=O)CSc3ccc(S(=O)(=O)N4CCCCC4)cc32)cc1	-18	-11	-5.0	0	-10	2.4	i	1	0.9	-2
COc1ccc(C2c3c(oc4ccccc4c3=O)C(=O)N2c2ccccn2)cc1 (centres undefined)	10	10	-2.1	-7	4	0.0	i	30	?	-2
CC#CCN1C(=O)N[C@@H](c2ccccc2)C(C(=O)OC)=C1C	5	8	3.6	-1	-4	-4.9	i	4	?	-4
CSc1nnc(-c2ccccc2)c(-c2ccccc2)n1	-19	-10	-2.9	-1	17	9.4	i	9	6.7	-4
O=C(Nc1ccccc1)c1c2c(nc3ccccc13)CCCC2	6	0	-4.8	-9	-2	-16	i	-7	-3.7	4
COc1ccc2c([N+](=O)[O-])c(Cl)[nH]c2c1	17	24	-2.9	-6	-7	-4.8	i	-15	3.0	-3
CCOC(=O)[C@H]1[C@H]2COc3ccc(Cl)cc3[C@@H]2N2C(=O)CN(C)C(=O)[C@@]12C	5	10	0.6	5	/	-1.8	i	/	/	-1
COc1ccc(-n2c(=O)c3ccccc3c3ccccc3c2=O)cc1	/	/	/	9	31	/	/	-11	-2.6	/
O=C(COc1ccccc1F)NNC(=O)c1cc(Br)ccc1Cl	1	-2	-2.5	-10	/	0.2	i	/	/	4
O=C(CSc1nc2ccc(Cl)cc2[nH]1)N1CCN(C(=O)c2ccco2)CC1	5	7	12	-1	1	-0.2	i	1	1.2	1
CCCC(=O)Nc1cccc(Oc2nc(C)cc(C)c2C#N)c1	/	/	/	/	-10	/	/	9	-0.8	-4
C/C(=N\N1CCN(Cc2ccccc2Cl)CC1)c1ccc(F)cc1	4	4	-0.9	-5	2	6.0	i	-13	-4.4	-2
C=CCNC(=S)NCCO	7	4	-1.1	-14	-1	-0.3	i	-8	0.1	2
CC(=O)c1ccc(NS(=O)(=O)c2ccc(C(C)(C)C)cc2)cc1	1	3	8.8	-2	5	-1.1	i	0	-0.9	7
CCC1CCCCN1CCCNC(=O)c1ccc2c(=O)n(CCOC)c(=O)[nH]c2c1 (centres undefined)	2	1	-3.7	-2	2	0.2	i	-11	?	-1
CCCC(=O)Nc1nnc(/C=C/c2ccc(OC)cc2)s1	0	0	0.0	2	0	0.6	i	13	4.3	2
CC1CC(C)CN(CCC(=O)Nc2ccc3c(c2)CCC3)C1 (centres undefined)	0	1	0.5	-4	-31	5.4	i	10	-0.8	-6
Cc1ccc(OCCn2nc3ccccc3n2)c(C)c1	/	/	/	-13	1	/	/	-1	1.3	-2
O=C(NCCCNC(=O)c1ccccc1Cl)c1cnccn1	11	22	1.7	-2	-5	-1.8	i	-2	0.5	-9

Arranged by SMILES length (high to low): some entries from above.
SMILES	Ecoli rRNA inh	Ecoli rRNA inh OD600	Ecoli rRNA inh RFP	ALR inh	Calb FLC	MLL AF4-AF9 inh	FGF22 binding	T cruzi repl	RanGTP-Imp inh	Beta cell apopt
CC(=O)c1ccc(NS(=O)(=O)c2ccc(C(C)(C)C)cc2)cc1	1	3	8.8	-2	5	-1.1	i	0	-0.9	7
O=C(CCCN1C(=O)c2cccc3cccc(c23)C1=O)Nc1ccon1	6	11	1.4	5	-18	-2.2	i	3	-1.9	2
O=C1CCNc2ccc(-c3ccccc3)cc21	-2	-10	-7.6	-15	13	-21	i	-1	-9.5	/

Further structures
SMILES	Ecoli rRNA inh	Ecoli rRNA inh OD600	Ecoli rRNA inh RFP	ALR inh	Calb FLC	MLL AF4-AF9 inh	FGF22 binding	T cruzi repl	RanGTP-Imp inh	Beta cell apopt
COc1ccc(-c2cc(=O)oc3c(C)c(OCC(=O)NCC4CCC(C(=O)O)CC4)ccc23)cc1 (centres undefined)	-10	-10	-5.4	/	-3	-0.6	i	-14	-1.5	1
Cc1ccc(S(=O)(=O)N2CCN(C(=O)c3c(-c4ccccc4)noc3C)CC2)c(C)c1	10	21	-0.6	0	6	-1.0	i	0	2.0	-4
Cc1ccc(NC(=O)CN(C)C(=O)CNC(=O)c2cccs2)cc1	15	-5	4.6	-13	2	2.5	i	0	?	2
O=C(OCC(=O)N1CCOCC1)c1c(Cl)ccc(Cl)c1Cl	1	0	-0.5	-7	35	-2.0	i	6	0.3	4
CCNCC(=O)Nc1ccc(N2CCOCC2)cc1	22	14	6.0	11	6	0.3	i	-12	4.3	0
CC(C)N=C(NS(=O)(=O)NC(=O)c1ccccc1)c1ccccc1	3	-3	-10	3	2	2.6	i	13	2.0	3
Nc1nonc1-n1nnc(C(=O)N/N=C/c2ccccc2Cl)c1COc1ccc(F)cc1	-5	-3	3.3	-4	-1	1.8	i	13	0.9	-8
Cc1cc2c(cc(C(=O)OCC(=O)NCc3cccs3)n2C(C)C)o1	/	/	/	34	27	/	/	-20	9.1	-1
CN(C)/C=C1\C(=O)N(c2ccc([N+](=O)[O-])cc2)N=C1c1ccccc1	/	/	/	/	3	/	/	6	-5.2	4
C#CCOCCOCCOCCNc1nc(N2CCN(C(=O)C(CCC(=O)O)n3cc(C(N)CC(C)C)nn3)CC2)nc(N2CCN(C(=O)C(Cc3cc4ccccc4[nH]3)n3cc(C(N)Cc4ccc(O)cc4)nn3)CC2)n1 (centres undefined)	/	/	/	-5	3	/	/	-16	?	6
COc1ccc(CCNC(=S)Nc2ccc(C)cc2C)cc1	-22	-37	-7.0	4	-11	-1.0	i	18	1.0	7
CCOC(=O)C1CCCN(CCC(=O)Nc2c(C(=O)OC)[nH]c3cc(OC)ccc23)C1 (centres undefined)	/	/	/	-3	?	/	/	0	-7.7	3
COc1cccc(/C=N/NC(=O)C(c2ccncc2)N2CCOCC2)c1 (centres undefined)	6	3	-1.0	-11	-1	-2.3	i	1	4.1	-1
Cc1cc(NC(=O)CSc2nnc(-c3cccnc3)n2N)no1	/	/	/	/	1	/	/	-7	4.0	-6
CCS(=O)(=O)c1ccc(Sc2nncn2C)c([N+](=O)[O-])c1	17	6	-0.5	-197	-10	0.3	i	14	-3.4	-11
O=C(NCc1ccc(F)cc1)C(=O)NCC1OCCN1C(=O)c1cccs1 (centres undefined)	9	2	-1.3	0	0	-2.7	i	-13	-2.9	-1
CCCNC(=O)c1cc(C)no1	/	/	/	-3	-19	/	/	-17	2.1	/
O=c1cc(CO)[nH]cc1OCc1ccccc1	22	2	0.2	1	-9	/	i	-9	-4.7	3
Cc1cc(C)n(-c2nc3ccccc3nc2Nc2ccc3[nH]c(=O)[nH]c3c2)n1	/	/	/	-20	6	/	/	4	32*	0
CCN1C(=O)[C@H]2[C@@H](c3ccc(-c4ccc(C(C)=O)cc4)c(OC)c3)N3CCCC[C@@]3(C(=O)OC)[C@H]2C1=O	4	2	-2.8	7	/	3.4	i	/	/	-1
O=C(NCc1cccc(Cl)c1)C1CCN(c2nnc(N3CCCC3=O)s2)CC1	-6	-1	-1.2	-1	-4	-20	i	0	-0.4	-1
Cc1ccc(OCC(=O)Nc2ccc(S(=O)(=O)Nc3cc(C)nc(C)n3)cc2)cc1	3	4	2.5	-1	-2	-0.8	i	-4	-5.7	-3
CCN(CC)CCC(=O)Nc1cccc2c1C(=O)c1ccccc1C2=O	-47	-44	-9.2	-11	-16	11	i	56*	-12	98*
CC1CCC(NC(=O)c2ccc(CNc3c(NC4CCCCC4)c(=O)c3=O)cc2)CC1 (centres undefined)	2	3	1.8	/	-2	-5.8	i	-4	-0.2	-2
COC(=O)Cc1ccc(NC(=O)c2ccc(C)c(C)c2)cc1	/	/	/	1	-23	/	/	8	3.7	3
Cc1cc(C)nc(NS(=O)(=O)c2ccc(NC(=O)Nc3ccccc3F)cc2)n1	3	-2	-0.2	8	-5	-0.2	i	-7	2.4	-2
CCN(C(=O)CN1C(=O)COc2ccc(S(=O)(=O)N3CCOCC3)cc21)c1ccc(OC)cc1	2	4	-0.7	/	30	17	i	-14	3.3	-1
COc1ccccc1CCNC(=O)COc1cccc2c1OC(C)(C)C2	-14	-28	-0.7	0	-9	2.1	i	-5	5.6	/

By substructure, the entries above containing an NH in an aromatic ring
SMILES	Ecoli rRNA inh	Ecoli rRNA inh OD600	Ecoli rRNA inh RFP	ALR inh	Calb FLC	MLL AF4-AF9 inh	FGF22 binding	T cruzi repl	RanGTP-Imp inh	Beta cell apopt
COc1ccc(-c2cc(=O)[nH]c(=O)[nH]2)cc1	/	/	/	-5	-7	/	/	5	-0.1	-2
COc1ccc2c([N+](=O)[O-])c(Cl)[nH]c2c1	17	24	-2.9	-6	-7	-4.8	i	-15	3.0	-3
O=C(CSc1nc2ccc(Cl)cc2[nH]1)N1CCN(C(=O)c2ccco2)CC1	5	7	12	-1	1	-0.2	i	1	1.2	1
CCC1CCCCN1CCCNC(=O)c1ccc2c(=O)n(CCOC)c(=O)[nH]c2c1 (centres undefined)	2	1	-3.7	-2	2	0.2	i	-11	?	-1
C#CCOCCOCCOCCNc1nc(N2CCN(C(=O)C(CCC(=O)O)n3cc(C(N)CC(C)C)nn3)CC2)nc(N2CCN(C(=O)C(Cc3cc4ccccc4[nH]3)n3cc(C(N)Cc4ccc(O)cc4)nn3)CC2)n1 (centres undefined)	/	/	/	-5	3	/	/	-16	?	6
CCOC(=O)C1CCCN(CCC(=O)Nc2c(C(=O)OC)[nH]c3cc(OC)ccc23)C1 (centres undefined)	/	/	/	-3	?	/	/	0	-7.7	3
O=c1cc(CO)[nH]cc1OCc1ccccc1	22	2	0.2	1	-9	/	i	-9	-4.7	3
Cc1cc(C)n(-c2nc3ccccc3nc2Nc2ccc3[nH]c(=O)[nH]c3c2)n1	/	/	/	-20	6	/	/	4	32*	0

Screens: PubChem BioAssay, Broad Institute
